# KCNQ2 pot – potentiators of rat KCNQ2 potassium channel; Potassium voltage-gated channel subfamily KQT member 2 (Rattus norvegicus), O88943; CHO-K1 KCNQ2, FluxOR thallium flux fluorescence; hits give high values; 0.54% of 310,000 active; B-score at 10 µM;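 active = fluorescence ratio B-score at least 3 SD of library B-scores, with initial fluorescence B-score within 3 SD, cut at about 5.3 in these data; same plate scores as AID 2156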;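 note: B-score of peak minus minimum over baseline fluorescence ratio after K+ and Tl+ stimulus; positive B-score means potentiation of KCNQ2 with more thallium influx and brighter signal; only the inactives scoring about 0 or higher are listed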
# Target sequence (O88943 whole entry, looked up): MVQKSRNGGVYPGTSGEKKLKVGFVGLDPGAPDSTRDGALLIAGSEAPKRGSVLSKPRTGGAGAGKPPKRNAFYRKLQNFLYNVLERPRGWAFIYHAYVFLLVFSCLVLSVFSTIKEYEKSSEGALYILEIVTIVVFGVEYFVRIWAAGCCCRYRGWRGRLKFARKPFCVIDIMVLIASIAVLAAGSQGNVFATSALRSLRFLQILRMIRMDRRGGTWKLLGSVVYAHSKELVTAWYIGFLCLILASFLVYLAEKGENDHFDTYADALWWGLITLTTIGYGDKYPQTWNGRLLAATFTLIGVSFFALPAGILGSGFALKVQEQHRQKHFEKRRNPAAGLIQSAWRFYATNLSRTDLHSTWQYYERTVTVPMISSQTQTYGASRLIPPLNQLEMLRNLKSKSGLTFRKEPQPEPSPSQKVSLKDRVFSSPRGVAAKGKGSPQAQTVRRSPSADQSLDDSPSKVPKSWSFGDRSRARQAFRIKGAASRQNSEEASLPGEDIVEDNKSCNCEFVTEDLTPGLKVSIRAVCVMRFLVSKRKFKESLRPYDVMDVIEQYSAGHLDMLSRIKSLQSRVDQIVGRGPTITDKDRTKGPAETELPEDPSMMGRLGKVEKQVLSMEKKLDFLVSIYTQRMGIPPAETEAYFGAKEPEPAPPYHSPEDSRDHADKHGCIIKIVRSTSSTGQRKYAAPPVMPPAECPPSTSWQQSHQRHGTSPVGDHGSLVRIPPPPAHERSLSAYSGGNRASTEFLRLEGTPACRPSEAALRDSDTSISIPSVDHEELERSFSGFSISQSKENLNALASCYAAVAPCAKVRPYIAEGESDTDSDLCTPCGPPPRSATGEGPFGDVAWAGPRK
# KCNQ2 pot baseline – recorded beside KCNQ2 pot, whose call it bears; B-score; compound at 10 µM; measured here: initial fluorescence intensity artifact check;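 brightness before thallium and not channel activity; 0 = typical well and far values either way flag optical interference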
# * hit, by the source's call. This is a subset. The share of hits here may be higher or lower than overall.
SMILES,KCNQ2 pot,KCNQ2 pot baseline
CCc1ccc(OCC(=O)Nc2ccc(N3CCN(S(C)(=O)=O)CC3)cc2)cc1,1.1,2.1
O=C1NC(=S)N/C1=C/c1ccc(Oc2ccc(C(F)(F)F)cc2[N+](=O)[O-])c(Cl)c1,0.02,-1.4
O=C1CCCC(=O)N1c1ccc(F)cc1,0.65,-0.49
C/C(Nc1ccccc1C(F)(F)F)=C1/CCOC1=O,0.91,6
O=C(c1ccsc1)N1CCN(C(=O)c2cccs2)CC1,1.4,1.4
CCN1CCN(C(=O)c2ccc3c(c2)N(Cc2ccccc2F)C(=O)c2ccccc2S3(=O)=O)CC1,0.62,1.4
Cc1nnc(SCC(=O)Nc2cccc(N)c2)n1-c1ccccc1,1.1,-0.73
O=C(CCN1C(=O)COc2ccccc21)N1CCN(c2ccccc2)CC1,0.04,3.5
S=C(NCc1ccco1)Nc1ccccc1,0.22,2
COCCN(C(=O)c1csnn1)C(C(=O)NC1CCCC1)c1ccccc1 (stereo not given),0.45,-0.66
Cc1cccc(-n2c(C)cc(/C=C3\NC(=O)NC3=O)c2C)c1,0.02,0.4
O=C(Nc1cccc(F)c1)c1c(O)c2ccccc2[nH]c1=O,0.02,-0.87
CCCC(=O)c1c[nH]c(C(=O)N2CCOCC2)c1,0.03,0.74
CN(C)C(CNS(=O)(=O)c1ccc(F)cc1)c1cccnc1 (stereo not given),0.32,0.04
O=C(Nc1cccnc1)OC1CCCC1,0.26,1.4
COCCCNC(=O)CCc1c(C)c2cc3c(C)coc3cc2oc1=O,1.3,0.63
CC(=O)Nc1ccc(C2(c3ccc(NC(C)=O)cc3)C(=O)Nc3ccccc32)cc1,0.59,-1.2
O=C1CN(C(=O)COC(=O)CNC(=O)c2ccccc2)c2ccccc2N1,2.4,-0.76
O=C(NCCN1CCN(c2ccccc2)CC1)C1CCN(S(=O)(=O)c2cccc3nsnc23)CC1,0.09,0.1
NS(=O)(=O)c1ccc(Nc2nc3ccccc3nc2NS(=O)(=O)c2cccc([N+](=O)[O-])c2)cc1,1.9,-0.23
CCOC(=O)c1ccc(NC(=O)Nc2ccc3c(c2)OCCO3)cc1,0.72,-0.3
CC1CCCN(C(=O)C2CCN(CC3CC=CCC3)CC2)C1 (stereo not given),1.6,-0.09
CCOC(=O)N1CCN(C(=O)C2CCCCC2)CC1,0.03,1.1
COc1cccc(NC(=O)c2c([N+](=O)[O-])cnn2C)c1,0.27,-1.1
O=C(NC1CCCCC1)c1cc(-c2cccs2)on1,0.05,-2.5
Cc1ccc2sc(N(CCCN(C)C)C(=O)c3ccc(S(=O)(=O)N4CCOCC4)cc3)nc2c1C,0.89,-0.54
Cc1cc([N+](=O)[O-])nn1CC(=O)N1CCc2ccccc2C1,0.29,1.2
O=C(CSc1cn(Cc2ccccc2)c2ccccc12)NCc1ccc(F)cc1,0.39,-0.02
C[n+]1cccc(C(=O)NNC(=O)C23CC4CC(CC(C4)C2)C3)c1,0.83,-0.95
CCc1ccc(NC(=O)CSc2nc3ccccc3c(=O)n2CCCC(=O)NCCCN2CCOCC2)cc1,0.02,0
CN(C)S(=O)(=O)c1cccc(-c2nnc(SCc3ccc4c(c3)OCCO4)o2)c1,1,-0.25
O=C(O)c1cccc(NC(=O)c2ccc(COc3ccc(Cl)cc3)cc2)c1,1.3,-1.4
COc1cc2c(cc1OC)-c1cc(Nc3ccc(N(C)C)cc3)nc(=O)n1CC2,2.5,-1.1
COC(=O)c1ccccc1NC(=O)N1CCN(C(=O)c2ccco2)CC1,0.12,0.93
c1ccc(C2Oc3ccccc3C3CC(c4cccs4)=NN32)cc1 (stereo not given),3.3,0.8
O=C(NCc1ccccn1)c1ccc2c(=O)n(CCc3ccccc3)c(=O)[nH]c2c1,0.28,1.1
O=C(/C=C/c1ccco1)NC(=S)NNC(=O)c1ccco1,0.86,-0.87
COc1cccc(-n2nnc3c(=O)n(CC(=O)NC4CCCC4)cnc32)c1,0.34,-0.96
CCOC(=O)C1CCN(CC(=O)c2c(C)n(C)c3ccc(OC)cc23)CC1,1.1,-0.41
Cc1noc(C(=O)Nc2ccc(F)cc2F)c1Cl,0.01,1.3
O=C(c1ccccn1)N1CCN(c2ccc(C(F)(F)F)cn2)CC1,1.2,0.13
COc1ccc(C(=O)N2CCN(C(C)=O)CC2)cc1S(=O)(=O)N1CCOCC1,0.85,2.6
CC(=O)N=c1cccc(NC(C)=O)n1O,0.76,1
Cc1cc(-c2nn(-c3ccccc3F)cc2CN2CCC(O)CC2)c(C)s1,0.37,1.5
O=C(Oc1cccc2ccccc12)c1ccco1,0.09,-0.79
Cc1cc(NC(=O)COC(=O)c2cc(S(=O)(=O)N(C)c3ccccc3)ccc2Cl)no1,3.4,-1.8
O=C(COC(=O)C12CC3CC(CC(Br)(C3)C1)C2)Nc1ccc2[nH]c(=O)[nH]c2c1,0.07,0.46
COc1ccc(NC(=S)N2CCC(C(=O)c3ccc(F)cc3)CC2)c(OC)c1,0.9,-0.84
Nc1ccc(N=Nc2ccc(N)cc2)cc1,1.2,1.2
Cc1ccc(-c2nc3ncccn3c2NC2CCCC2)o1,0.17,-1.4
Cc1nn(Cc2ccc(Cl)cc2)c2sc(C(=O)OCC(N)=O)cc12,0.42,-0.88
Cc1ccc(S(=O)(=O)N(Cc2ccccc2F)C(=O)N2CCN(C)CC2)cc1,0.85,-0.17
Cc1cccc(C)c1NC(=O)CSc1nc2ccccc2c(=O)[nH]1,0.12,-0.54
CCOC(=O)c1c(/N=C/C2C(=O)CCCC2=O)sc(C)c1C,0.58,-2.2
Cc1cccc(C(=O)N2CCc3c([nH]c4ccccc34)C2CC(C)C)n1 (stereo not given),0.9,-0.91
COc1cccc(C2C(C#N)=C(N)Oc3cc(N)ccc32)c1OC (stereo not given),1.1,-4.2
CCN(CC)CCNC(=O)CNC(=S)N(CCCN1CCOCC1)Cc1cccs1,0.5,-0.1
CC(C)Oc1ccc(NC(=O)C2CCCNC2=O)cc1 (stereo not given),0.49,-0.67
CCCC(NC(=O)COc1cc2c(c3oc(=O)c(C)c(C)c13)CCC(C)(C)O2)C(=O)O (stereo not given),2.3,1.6
CCN(CC(=O)Nc1c(F)cccc1F)C(=O)CCCc1nc2ccccc2c(=O)[nH]1,1.1,-1.9

# Ordered by the number under KCNQ2 pot (highest first): seven of the compounds above
compound | KCNQ2 pot | KCNQ2 pot baseline
CCCC(NC(=O)COc1cc2c(c3oc(=O)c(C)c(C)c13)CCC(C)(C)O2)C(=O)O (stereo not given) | 2.3 | 1.6
COc1cccc(C2C(C#N)=C(N)Oc3cc(N)ccc32)c1OC (stereo not given) | 1.1 | -4.2
CCOC(=O)c1c(/N=C/C2C(=O)CCCC2=O)sc(C)c1C | 0.58 | -2.2
CCN(CC)CCNC(=O)CNC(=S)N(CCCN1CCOCC1)Cc1cccs1 | 0.5 | -0.1
CC(C)Oc1ccc(NC(=O)C2CCCNC2=O)cc1 (stereo not given) | 0.49 | -0.67
Cc1ccc(-c2nc3ncccn3c2NC2CCCC2)o1 | 0.17 | -1.4
Cc1cccc(C)c1NC(=O)CSc1nc2ccccc2c(=O)[nH]1 | 0.12 | -0.54

# (further entries)
SMILES,KCNQ2 pot,KCNQ2 pot baseline
CCc1ccc2[nH]c(=O)c(CN(Cc3ccc(OC)cc3)Cc3nnnn3CCOC)cc2c1,0.03,0.87
CCCOC(=O)C1=C(C)NC2=C(C(=O)C(C(=O)OC)C(C)C2)C1c1ccc(N(C)C)cc1 (stereo not given),0.47,-0.36
COc1cccc(-c2nc3n(n2)C(c2ccccc2Cl)C(C(N)=O)=C(C)N3)c1 (stereo not given),0.02,0.68
CCc1nn(CC(=O)NCCCN2CCN(C)CC2)c(=O)c2cc3occc3n12,1.3,-1.9
O=c1c2ccccc2ncn1-c1cccc(Br)c1,0.82,-1.2
COCCNC(=O)[C@@H]1CSC2c3ccc(OC)c(OC)c3C(=O)N21 (stereo not given in full),0.49,0.81
CS(=O)(=O)N(CC(=O)Nc1ccc(Br)cc1F)C1CCCCC1,1,-0.58
Cc1ccc(NC(=O)CN(C)CC(=O)Nc2ccccc2C#N)cc1,0.52,7.3
COc1ccccc1CNC(=O)c1n[nH]c2ccccc12,0.13,0.13
Cc1cc(C(=O)NCCc2ccc(S(N)(=O)=O)cc2)c(C)o1,0.62,-0.06
CCOc1ccc(C(=O)NCCNC(=O)c2ccc(OCC)cc2)cc1,0.92,0.05
O=C(N/C(=C\c1ccco1)C(=O)N1CCCC1)c1cccs1,0.28,-1.9
Cc1occc1-c1nnc(SCC(=O)c2cc3ccccc3oc2=O)o1,0.9,-0.89
O=C(CCc1nc2ccccc2c(=O)[nH]1)OCc1ccccc1F,0.27,-1.4
O=c1ccn(CCCBr)c(=O)[nH]1,0.22,0.77
NC(=Nc1ccc(Cl)cc1)c1ccccc1,0.58,0.04
COc1cccc(NC(=O)NCc2c(-c3ccccc3)noc2C)c1,0.55,-0.5
CC(C)(C)c1ccc(/C=N/n2cnnc2)cc1,2.1,-0.04
Cc1ccccc1C(=O)N1CCc2cc(-c3nc(NC(=O)Cc4ccc5c(c4)OCO5)sc3C)ccc21,1,1.2
Cc1ccc(C(=O)N/N=C2\CCSC2)cc1[N+](=O)[O-],1.4,-0.93
CC1=NN(c2ccccc2)C(=O)C1C(=O)c1ccc(Cl)cc1 (stereo not given),4.4,0.73
CC(=O)c1ccc(NC(=O)CSc2ccc3nnc(-c4ccccn4)n3n2)cc1,0.93,0.39
CCCc1c(C(=O)N/N=C/c2ccco2)nnn1-c1nonc1N,1.6,0.42
COc1ccccc1NC(=O)CN(c1ccccc1OC)S(=O)(=O)c1ccccc1,0.13,-0.67

# Three compounds drawn at random from the list so far, as already listed:
SMILES,KCNQ2 pot,KCNQ2 pot baseline
Cc1ccccc1C(=O)N1CCc2cc(-c3nc(NC(=O)Cc4ccc5c(c4)OCO5)sc3C)ccc21,1,1.2
COc1cccc(NC(=O)NCc2c(-c3ccccc3)noc2C)c1,0.55,-0.5
Cc1ccc(C(=O)N/N=C2\CCSC2)cc1[N+](=O)[O-],1.4,-0.93

# Some of the entries so far, with tabs:
Molecule	KCNQ2 pot	KCNQ2 pot baseline
O=C(NC1CCCCC1)c1cc(-c2cccs2)on1	0.05	-2.5
Cc1ccc2sc(N(CCCN(C)C)C(=O)c3ccc(S(=O)(=O)N4CCOCC4)cc3)nc2c1C	0.89	-0.54

# Next part
SMILES,KCNQ2 pot,KCNQ2 pot baseline
O=S(=O)(/N=C(\c1ccccc1)N1CCOCC1)c1ccc(Cl)cc1,1.5,-0.02
Cc1csc(NC(=O)Cn2nc(C)c([N+](=O)[O-])c2C)n1,0.08,-1.2
COc1ccccc1-n1c(=O)c2c3c(sc2n2c(SC)nnc12)CCC3,0.58,-0.8
Cn1c(CCC(=O)Nc2ccccc2F)nnc1SCC(=O)Nc1ccccc1Cl,0.12,-0.3
COc1cccc(-c2cc(C(F)(F)F)nc(-n3cncn3)n2)c1,0.88,-1.8
Cc1ccc(C(=O)O/N=C(\N)Cc2cccs2)cc1[N+](=O)[O-],1.1,2.2
CNC(=S)NNC(=O)COc1ccccc1C,0.46,-0.08
Cc1nnc2sc(-c3ccc(N(C)C)cc3)nn2c1=O,2,-0.63
C=CCc1ccc(OCCCCOc2ccc(C(=O)O)cc2)c(OC)c1,0.58,1.3
CCOC(=O)N1CCN(c2nc(C)c3c(n2)CCCC3=O)CC1,0.54,-0.82
Cc1occc1C(=O)N1CCCC(Nc2ccc(F)c(F)c2)C1 (stereo not given),1.4,-2.2
CCC(=O)N1CC2(CC(c3cccc([N+](=O)[O-])c3)=NO2)C[C@H]1C(=O)NCC(N)=O (stereo not given in full),0.62,-0.75
Cc1c(C)n(CCCN(C)C)c2ncnc(NC3CCCCC3)c12,0.82,1.6
CCOc1ccc(NC(=S)N(CCOC)C2CCN(C(C)C)CC2)cc1,1.5,1.5
CCCC(=O)N(Cc1cc(=O)[nH]c2ccccc12)c1ccccc1C,2.8,-1.9
O=[N+]([O-])c1ccccc1S(=O)(=O)NCCSc1ccccc1,0.29,0.07
O=C(CNC1=NCCC1)c1ccc2c(c1)OCCO2,1.6,0.04
O=C(N/N=C/c1ccco1)c1cc(-c2ccc(Cl)s2)[nH]n1,0.18,0.13
O=C(Cc1csc(Nc2nc(=S)[nH]c3ccccc23)n1)NCc1ccc(Cl)cc1,0.63,-0.43
C=CCOc1ccc(C=Nc2ccc(Cl)cc2)c(O)c1,0.14,-0.21
CCOc1ccc(Nc2nc3c(c(=O)[nH]2)CCC3)cc1,0.2,1.3
CCCCN(C)CCCNC(=O)c1cn(C)c2ccc(S(=O)(=O)N(C)C3CCCCC3)cc2c1=O,1.5,0.01
CCCNC(=O)CN1C(=O)NC(c2ccccc2)(c2ccccc2)C1=O,1.2,0.06
O=C(Nc1nnc(C2=COCCO2)o1)c1cccc(F)c1,2.5,0.52
Cc1cccc(N2CN(Cc3ccco3)CNC2=S)c1C,0.02,-1.1
CC(C)(C)NC(=O)c1nc2nc(-c3ccccc3)cc(C(F)(F)F)n2n1,1.4,6.2
N#CC1(NC(=O)CN2c3cccc4cccc(c34)S2(=O)=O)CCCCC1,0.66,1.2
CC(C)CNC(=S)NC(=O)c1ccc(Cl)cc1,3.9,0.27
O=C(CCc1nc2ccccc2c(=O)[nH]1)Nc1ccc(F)cc1,1.4,0.81
Brc1cccc(-c2nnc3sc(CN4CCC5(CC4)OCCO5)cn23)c1,0.25,0.64
Cc1nn(CC(=O)NC2C(=O)N3C(C(=O)O)=C(CSc4nnnn4C)CSC23)cc1Br (stereo not given),0.33,-1.2
CC(C(=O)NCCSCc1cccc(Cl)c1)N(c1ccccc1)S(C)(=O)=O (stereo not given),1.9,-0.62
CN1CCC(=NNC(=O)C(=O)NCc2ccccc2)CC1,1.1,-1.4
Clc1cccc(-c2ccc(/C=N/n3cnnc3)o2)c1,0.38,0.57
CC(C)Cc1nnc(NC(=O)CCC(=O)N2CCN(c3ccccc3F)CC2)s1,0.34,0.42
C=CCn1c(SCC(=O)NC(=O)NC2CCCC2)nnc1C1CCCCC1,0.11,0.43
CCCS(=O)(=O)c1c(S(=O)(=O)CCC)c2ccc(C(N)=O)cn2c1C(=O)c1ccc(F)cc1,0.55,0.02

# Bioassay records: PubChem BioAssay, Johns Hopkins Ion Channel Center
